Arbovirus inh: antivirals against arbovirus infection, primary screen, cell-based, full library, 10K replicate subset; inhibition, % at 10 µM; arbovirus infection cell-based antiviral screen; hit rate 0.37% among 200,000;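 active means inhibition from about 30%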;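 further: bluetongue infection of BSR cells; cell survival read as ATP light after 72 h; 0% = infected wells without compound and 100% = uninfected wells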
Mtb bLac sens: beta-lactam sensitization of Mtb H37Rv, H37Rv | M. tuberculosis H37Rv growth with meropenem, percent inhibition; hits of this screen are not shown here | inhibition, % at 25 µM | hit rate 0.27% among 330,000;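 active means about 74% or more and at least 40 points above the plate without the antibiotic, then above 30% in a dose series; inconclusive means first-round hits that could not be retested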;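 further: growth measured after seven days incubation then overnight dye step; 0% = bacteria only wells and 100% = bacteria with antibiotic; twin plates without the antibiotic show which effects depend on it; some results filed as inactive read as strong as hits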
Mtb growth: M. tuberculosis H37Rv growth inhibitors, H37Rv strain (AID 1626); M. tuberculosis H37Rv growth inhibition; higher % means a stronger effect; inhibition, % at 10 µM, or IC50 in µM where a hit was titrated; hit rate 0.95% among 220,000;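 active means confirmed in a dose series; inconclusive means inhibition above 80% but not taken into the dose series; inactive means below 80% or under 30% at every dose of the series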;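 further: bacteria incubated seven days before Alamar blue readout; 0% = bacteria only wells and 100% = bacteria with antibiotic wells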
YopH inh: YopH tyrosine phosphatase inhibitors, primary screen, biochemical, fluorescence Ex485/Em525. hit rate 0.16% among 140,000. YopH tyrosine phosphatase [Yersinia enterocolitica]. inhibition, %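 (about 10 µM by stock and volumes)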. AID 898, 2007;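 active means inhibition of 50% or more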;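 further: controls were vehicle for no effect and minimum signal wells for full effect; inactives centre near -20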
RecA intein inh: Mtb RecA intein splicing inhibitors, primary screen, biochemical, fluorescence, HTS; Protein RecA (Mycobacterium tuberculosis (strain ATCC 25618 / H37Rv)), P9WHJ3; cell-free RecA intein splicing; inhibition, %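 (about 9 µM by stock and volumes)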; hit rate 0.75% among 290,000; AID 2221, 2009; in the data active means inhibition above about 30%; inconclusive means no clear call, values can overlap the other calls;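 further: 0% = vehicle wells and 100% = reference inhibitor control wells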
Target sequence (P9WHJ3 whole entry, looked up): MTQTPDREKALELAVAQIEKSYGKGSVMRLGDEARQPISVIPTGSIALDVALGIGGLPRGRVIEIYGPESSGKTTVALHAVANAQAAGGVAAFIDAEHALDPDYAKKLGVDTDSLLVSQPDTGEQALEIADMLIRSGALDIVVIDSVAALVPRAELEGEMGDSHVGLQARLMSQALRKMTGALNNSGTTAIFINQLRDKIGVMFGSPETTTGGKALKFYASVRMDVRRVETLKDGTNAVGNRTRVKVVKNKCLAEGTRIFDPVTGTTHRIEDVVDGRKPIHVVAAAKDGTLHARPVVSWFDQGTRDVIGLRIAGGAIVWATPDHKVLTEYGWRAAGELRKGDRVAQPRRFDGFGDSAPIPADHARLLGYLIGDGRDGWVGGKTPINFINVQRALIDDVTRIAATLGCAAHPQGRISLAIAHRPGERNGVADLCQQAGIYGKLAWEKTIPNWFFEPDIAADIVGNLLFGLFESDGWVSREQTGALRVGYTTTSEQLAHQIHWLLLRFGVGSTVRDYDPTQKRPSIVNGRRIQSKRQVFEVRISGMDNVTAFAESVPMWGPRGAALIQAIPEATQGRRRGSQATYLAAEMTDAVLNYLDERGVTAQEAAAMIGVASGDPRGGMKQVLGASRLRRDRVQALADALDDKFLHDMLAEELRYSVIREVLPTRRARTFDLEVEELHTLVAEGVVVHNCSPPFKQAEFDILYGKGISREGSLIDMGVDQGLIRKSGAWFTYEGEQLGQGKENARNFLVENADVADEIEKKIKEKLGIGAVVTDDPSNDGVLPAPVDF
Arbovirus inh repeat: also measured in Arbovirus inh; calls as there; inhibition, %; measured here: 10K subset replicate screen; many hits read low in the repeat;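 first of two repeat runs on a subset; 0% = infected and 100% = uninfected wells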
Starred values were filed as active, the others as inactive; u = inconclusive; x = no result given. This is a subset; the hit share may differ from the screen's.

SMILES	Arbovirus inh	Mtb bLac sens	Mtb growth	YopH inh	RecA intein inh	others
CC(=O)NC(CCS(C)(=O)=O)C(=O)Nc1cccc(Cl)c1Cl (centres undefined)	5.3	-4.2	4.0%	-26.5	2.4	Arbovirus inh repeat=7.3
Fc1ccccc1N1CCN(C2CCN(Cc3c[nH]c4ccccc34)CC2)CC1	-10.0	4.7	-7.6%	x	-0.8	Arbovirus inh repeat=-4.4
C(=C\c1ccccc1)/CSc1ccccn1	9.5	-2.4	8.2%	x	-0.1
O=C1C=C(c2ccccc2)CC(/C=C/c2ccccc2)C1 (centres undefined)	1.4	-2.4	-1.5%	-30.0	-0.8
COc1ccc(-c2nc(C(N)=O)c3[nH]c(=O)n(-c4cccc(C)c4)c3n2)c(OC)c1	2.3	-1.0	13.5%	-25.5	0.2	Arbovirus inh repeat=3.5
Cc1ccc(-c2nc3cccnc3s2)cc1NS(C)(=O)=O	-1.3	2.2	2.4%	x	-6.1
O=C(C1=C(O)C(=O)N(CCN2CCOCC2)C1c1cccs1)c1cc2ccccc2o1 (centres undefined)	x	14.6	x	x	1.2
COCCNC(=O)C(c1ccncc1)N(C(=O)Cn1nnc2ccccc21)c1ccc(OC)cc1 (centres undefined)	-1.5	0.4	-3.4%	14.8	-0.9
O=c1oc(-c2cccs2)nc2sc3c(c12)CCCCC3	25.0	10.1	50.9%	-47.5	-1.3	Arbovirus inh repeat=28.0
CCOc1ccc(C(=O)COC(=O)c2c(-c3ccccc3)noc2C)cc1	x	0.1	x	x	3.5
CN(CC(=O)NCc1ccncc1)S(=O)(=O)c1ccc(F)cc1	10.2	6.0	0.1%	-7.2	2.5
COC(=O)c1cccc(C23CC4(C2)[C@H](CN(Cc2cccnc2)[C@@H]4c2ccccc2)C3c2ccc(Cl)nc2)c1 (some centres undefined)	x	95.3	12.2%	x	4.7
CC(=NCCc1ccccc1)C1=C(O)C(c2ccccc2)OC1=O (centres undefined)	-2.5	-5.4	1.1%	x	-1.8
Cc1ccc(C(=O)CSc2nc(C)cc(=O)[nH]2)cc1	0.0	-8.0	-1.7%	-0.8	-2.5
Cc1ccc(S(=O)(=O)c2nc(S(C)(=O)=O)sc2N2CC(C)OC(C)C2)cc1 (centres undefined)	x	-12.0	x	x	0.0
CC(c1nnc(Sc2nnnn2-c2ccccc2)n1-c1ccc(F)cc1)N(C)C (centres undefined)	8.4	-11.0	-6.6%	-40.1	x
O=C(CC1CS(=O)(=O)CC1CC(=O)Oc1ccccc1F)Oc1ccccc1F (centres undefined)	10.9	5.4	2.5%	-17.8	4.5
CN(C)S(=O)(=O)c1ccc(-c2csc(-c3cccnc3)n2)cc1	-6.7	27.6	3.0%	x	-4.2
O=c1c2cc(Cl)ccc2[nH]c(=S)n1Cc1ccccn1	3.5	1.1	4.4%	-26.5	0.7
CC(O)c1nc2ccccc2n1C/C=C/c1ccccc1 (centres undefined)	4.4	9.2	-4.5%	-27.6	0.2
COc1ccc(S(=O)(=O)N2CCCN(C)CC2)cc1	x	-3.9	x	x	-1.7
CSc1ccccc1OCc1cc(C(=O)N(C)Cc2ccc3nsnc3c2)no1	x	-0.7	x	x	6.1
Cc1sc2ncnc(OCC(=O)N3CCN(S(=O)(=O)c4ccccc4)CC3)c2c1C	8.4	0.5	3.6%	1.5	0.9
COc1ccc(-c2cc(C(F)(F)F)c(C#N)c(SCC(=O)O)n2)cc1OC	x	-17.4	9.3%	x	-30.5
O=S(=O)(NCCc1csc(-c2cccnc2)n1)c1cc(F)ccc1F	x	-3.8	x	x	-0.7
O=[N+]([O-])c1cccc(-c2ccc(CN3CCCCC3)o2)c1	x	-1.2	x	x	4.5
CCOCC(=O)N1CCC(Cc2ccccc2)CC1	-3.6	-4.3	0.0%	x	0.2
CCCCC[C@H]1CN(Cc2ccccc2)C(=O)[C@@H]1CC(=O)NCc1ccc(OC)cc1	x	22.4	x	x	10.3
CC(=O)C1=C(O)C(=O)N(CCc2c[nH]c3ccccc23)C1c1cccc(O)c1 (centres undefined)	7.7	5.9	1.1%	-14.8	7.1
CCn1ncc(/C=C/C(=O)NCc2cn(C)nc2C)c1C	1.6	-15.9	-1.9%	-24.3	-2.5
Cc1ccc(S(=O)(=O)N2CCOC2CNC(=O)C(=O)NCc2ccc3c(c2)OCO3)cc1 (centres undefined)	x	-1.9	x	x	0.0
CCC(C(=O)Nc1cccnc1)c1ccccc1 (centres undefined)	x	-5.8	x	x	-1.5
O=C(O)c1cccc(Nc2ncnc3ccccc23)c1	0.2	1.9	-5.2%	-40.6	-1.9
CN(CCC#N)C(=O)COC(=O)/C=C/c1cccs1	9.9	-4.2	1.5%	x	-0.4
O=c1[nH]ncc2c3ccccc3n(Cc3cccc(Cl)c3)c12	3.1	-4.0	-6.6%	x	0.3
O=C1c2cccc3c(O)ccc(c23)C(=O)N1Cc1ccco1	9.1	x	x	x	-57.4
OCCN1CN=C(Nc2nc3ccccc3s2)NC1	9.9	2.6	-5.7%	8.4	-0.3
Cc1ccc(/C=C/C(=O)N2CCN(S(=O)(=O)c3ccc(C)c(C)c3)CC2)o1	9.9	0.7	4.4%	-12.0	10.6
C/C(=N\N=C\c1cccc(F)c1)c1nnn(-c2nonc2N)c1C	-4.4	-3.4	-6.7%	-19.9	0.1
CC1CCCN(S(=O)(=O)c2cccc(-c3cn4cccnc4n3)c2)C1 (centres undefined)	-5.2	-1.9	x	-25.7	-2.9

5 consecutive records already listed:
SMILES	Arbovirus inh	Mtb bLac sens	Mtb growth	YopH inh	RecA intein inh	others
O=C1c2cccc3c(O)ccc(c23)C(=O)N1Cc1ccco1	9.1	x	x	x	-57.4
OCCN1CN=C(Nc2nc3ccccc3s2)NC1	9.9	2.6	-5.7%	8.4	-0.3
Cc1ccc(/C=C/C(=O)N2CCN(S(=O)(=O)c3ccc(C)c(C)c3)CC2)o1	9.9	0.7	4.4%	-12.0	10.6
C/C(=N\N=C\c1cccc(F)c1)c1nnn(-c2nonc2N)c1C	-4.4	-3.4	-6.7%	-19.9	0.1
CC1CCCN(S(=O)(=O)c2cccc(-c3cn4cccnc4n3)c2)C1 (centres undefined)	-5.2	-1.9	x	-25.7	-2.9

Additional compounds follow:
SMILES	Arbovirus inh	Mtb bLac sens	Mtb growth	YopH inh	RecA intein inh	others
COc1ccc(C2C(C(=O)c3ccc(C)o3)=C(O)C(=O)N2Cc2cccnc2)cc1 (centres undefined)	x	-4.0	x	x	-0.6
O=C(Nc1ccc(C(F)(F)F)cc1)c1ccccc1Br	0.8	-6.0	6.2%	x	1.8
COC(=O)C1CCN(C(=O)COC(=O)c2oc3ccc(OC)cc3c2C)CC1	x	u	x	x	0.6
Cc1cccc(C)c1NC(=O)C(C)Sc1n[nH]c(-c2ccncc2)n1 (centres undefined)	x	-2.1	x	x	-0.4
CCCCn1c(O)c(C(CC)=Nc2ccc(C(=O)O)cc2)c(=O)[nH]c1=O	-0.3	-5.6	-1.2%	-41.4	5.4
CON(C)c1nc(OCCNC(=O)COc2ccc(Cl)cc2C)nc(N(C)C)n1	1.5	-1.1	-1.9%	-42.8	x
Cc1ccc(-c2noc(C3CCCN(C(=O)c4c(F)cccc4F)C3)n2)cc1 (centres undefined)	3.3	16.9	-3.8%	-54.0	7.2
COc1ccc(CCNc2c(C=O)c(=O)[nH]c3ccccc23)cc1OC	x	-10.4	x	x	-3.9
COc1ccc(NS(=O)(=O)c2cc(NC(=O)C3CC3)ccc2N2CCCCC2)cc1	-17.5	72.2	10.1%	x	1.6
COc1ccc(NC(=O)/C=C2\SC(=O)NC2=O)cc1	1.2	-17.2	-2.3%	x	0.6
Cc1cccc(C)c1NC(=O)CNC(=O)c1ccc2nc[nH]c2c1	x	-0.9	x	x	1.7
CC(C)CNC(=S)Nc1ccccc1F	4.3	-2.8	-2.8%	-29.9	-4.4
CCNC(=S)NCCC1=c2ccccc2=N/C1=C\c1c(O)n(C)c(=O)n(C)c1=O	x	-9.3	-2.5%	x	0.7
CCOC(=O)C(=O)NCC(c1cccs1)S(=O)(=O)c1ccc(Cl)cc1 (centres undefined)	x	-7.5	x	x	4.1
CCOC(=O)C1CCCN(C(=O)CCc2nnc(-c3ccc(C(C)=O)s3)o2)C1 (centres undefined)	x	-10.4	x	x	-1.0
O=C(COC(=O)CCC(=O)c1ccccc1)Nc1nnc(-c2ccccc2)o1	x	4.1	x	x	0.0
O=C(CCc1nnc(Cc2ccc3c(c2)OCO3)o1)NC(c1ccccn1)C(F)(F)F (centres undefined)	-8.0	-0.5	-1.5%	x	x
Cc1cc(C)nc(SCc2cn3ccccc3n2)n1	x	-2.0	-0.2%	x	-1.0
O=C(Cn1c(=O)c2cccn2c2ccc(F)cc21)N1CCN(c2ccc(F)cc2)CC1	x	1.6	x	x	0.6
O=C(Cn1cc2c(n1)CCCC2)N1CCOCC1	1.5	-1.7	-4.0%	-30.3	0.9	Arbovirus inh repeat=1.1

Pulled by structure from the list above:
SMILES	Arbovirus inh	Mtb bLac sens	Mtb growth	YopH inh	RecA intein inh	others
OCCN1CN=C(Nc2nc3ccccc3s2)NC1	9.9	2.6	-5.7%	8.4	-0.3
COC(=O)c1cccc(C23CC4(C2)[C@H](CN(Cc2cccnc2)[C@@H]4c2ccccc2)C3c2ccc(Cl)nc2)c1 (some centres undefined)	x	95.3	12.2%	x	4.7

(continued)
SMILES	Arbovirus inh	Mtb bLac sens	Mtb growth	YopH inh	RecA intein inh	others
COc1nccnc1NS(=O)(=O)c1ccc(N=Cc2c(C)[nH]n(-c3ccc(C)c(C)c3)c2=O)cc1	-5.2	57.4	x	-5.2	4.8
Cc1ccc(C(=O)N/N=C/C=C/c2ccccc2)cc1	-7.0	95.5	-3.4%	x	0.3
Cc1c(C)c2ccc(OCC(=O)N3CC[C@@]4(O)CCCC[C@H]4C3)c(C)c2oc1=O	x	-9.2	x	x	-3.5
Cc1ccc(C)c(CN2CCC(CNC(=O)Nc3cccc(Cl)c3C)CC2)c1	x	8.0	x	x	-1.6
COC(=O)c1ccccc1CSc1nsc(C)c1C#N	x	3.3	x	x	-0.1
CCOc1ccc(N2CC(C(=O)Nc3ccccn3)CC2=O)cc1 (centres undefined)	-9.4	28.1	2.2%	x	-1.0
CC(C)C(=O)Nc1cccc(NC(=S)NC(=O)c2ccccc2Cl)c1	1.9	5.5	-5.6%	-32.1	-0.8
O=C(O)c1cc(S(=O)(=O)NC(CO)C(O)c2ccc([N+](=O)[O-])cc2)ccc1Br (centres undefined)	x	0.7	x	x	0.8
COc1ccc(F)cc1S(=O)(=O)NCCN1CCOCC1	x	4.5	x	x	0.8
Cc1cc(N2C(=O)C(=O)/C(=C(/O)c3ccc(F)cc3)C2c2cccc(Br)c2)no1 (centres undefined)	11.5	0.7	-10.1%	-39.7	0.3
Cn1c(C(=O)OC(C(=O)NC2CCCCC2)c2cccnc2)cc2sccc21 (centres undefined)	-8.8	1.3	4.6%	-13.9	-2.4
O=S(=O)(Nc1ncnc2c1oc1ccccc12)c1ccc(Cl)s1	x	2.0	-7.9%	x	-2.1
CCc1ccc(OCC(=O)N2CC(C(N)=O)Oc3ccccc32)cc1 (centres undefined)	x	7.7	x	x	-6.8

Structural class: the compounds so far containing a COOH group (four)
SMILES	Arbovirus inh	Mtb bLac sens	Mtb growth	YopH inh	RecA intein inh	others
COc1ccc(-c2cc(C(F)(F)F)c(C#N)c(SCC(=O)O)n2)cc1OC	x	-17.4	9.3%	x	-30.5
O=C(O)c1cccc(Nc2ncnc3ccccc23)c1	0.2	1.9	-5.2%	-40.6	-1.9
CCCCn1c(O)c(C(CC)=Nc2ccc(C(=O)O)cc2)c(=O)[nH]c1=O	-0.3	-5.6	-1.2%	-41.4	5.4
O=C(O)c1cc(S(=O)(=O)NC(CO)C(O)c2ccc([N+](=O)[O-])cc2)ccc1Br (centres undefined)	x	0.7	x	x	0.8

Assay outcomes deposited in PubChem by several laboratories.
